GLA inh pH 4.5 = inhibitors of human alpha-galactosidase A at pH 4.5; P06280; purified enzyme, 4-MU-alpha-Gal fluorescence, pH 4.5; activity change, negative = inhibition, % at 105 µM; 230,000 tested, under 10 active; AID 1467; inconclusive = small, poorly fitted or top-dose-only inhibition, or a rising curve; inactive = flat fitted curve, though single readings scatter; no compound was filed as active;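 also: 0% = full activity with enzyme and -100% = basal without enzyme; dose as in the result columns while the protocol names 77 µM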
Target sequence (P06280 whole entry, looked up): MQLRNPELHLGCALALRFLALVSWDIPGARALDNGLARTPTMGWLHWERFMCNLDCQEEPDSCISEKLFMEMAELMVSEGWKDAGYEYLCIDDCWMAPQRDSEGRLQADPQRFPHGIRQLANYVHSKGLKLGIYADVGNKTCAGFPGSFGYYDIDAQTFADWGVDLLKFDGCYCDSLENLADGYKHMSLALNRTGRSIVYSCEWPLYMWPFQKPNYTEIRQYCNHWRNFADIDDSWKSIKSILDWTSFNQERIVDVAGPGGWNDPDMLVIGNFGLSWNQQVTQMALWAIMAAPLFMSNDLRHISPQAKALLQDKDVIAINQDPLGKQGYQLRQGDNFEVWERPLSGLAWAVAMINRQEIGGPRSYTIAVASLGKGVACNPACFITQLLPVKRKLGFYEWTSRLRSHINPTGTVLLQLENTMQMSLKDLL
miR-21 FLuc = raises the signal of a miR-21 reporter. AID 2288. Potency, µM (doses to about 38.3 µM), without a hit: top-dose reporter change, positive = more light. 340,000 tested, under 10 active. HeLa miR-21 FLuc reporter, luciferase, 48 h; active = well fitted rising curve with a large enough effect; inconclusive = small, poorly fitted or top-dose-only effect; inactive = no such curve, though single readings can be large or run the other way;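 also: % of control where 0% means no effect; miR-21 action dims this reporter so a rising signal means less miR-21 action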
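Luminescence from a firefly luciferase reporter carrying a miR-21 binding site downstream, stably expressed under a CMV promoter in HeLa cells that make miR-21 endogenously, reports miRNA modulation after 48 h compound exposure up to approximately 40uM final.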
Rango release inh = prevents RanGTP from dissociating the Rango-importin beta complex | Biochemical FRET Rango-importin beta, RanGTP-induced dissociation | Potency, µM (series often up to 46.1 µM), without a hit: at the highest dose activity change, negative = inhibition | 0.071% of 340,000 active | AID 540253; active means falling FRET ratio curve, often poorly fitted, with flat reads before Ran was added; inconclusive means other falling curves, or compound fluorescence or quenching; inactive means flat or rising ratio curve;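 also: potency is read from the fitted curve at half-maximal effect; % of control where 0% means no effect; nearly all actives have a fitted effect of over 45% in size; -100% = wells without RanGTP and RCC1; the record marks most hits as doubtful in a second field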
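Rango (0.1 uM)–importin beta (0.25 uM) complex; RanGTP-RCC1 trigger; 45 min RT; CFP/YFP FRET read.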
Rango-impB inh = prevents formation of the Rango-importin beta complex | Rango CFP/YFP FRET sensor + importin beta, 45 min | Potency, µM (doses to about 92.2 µM), without a hit: top-dose inhibition of complex formation | 0.031% of 340,000 active | AID 540263; active = rising FRET ratio curve, often small or poorly fitted; inconclusive = mostly compound fluorescence or quenching in the first reads; inactive = flat curves in all reads;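 also: potency is read from the fitted curve at half-maximal effect; 0% = DMSO wells and 100% = buffer wells lacking importin beta; nearly all actives have a fitted effect of over 15% in size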
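FRET biosensor Rango (snurportin 1 IBB between N-terminal EYFP and C-terminal Cerulean), 50 nM in PBS/1 mM DTT/0.02% Tween-20/0.1% BSA, preincubated 5 min RT with compound; 0.125 microM importin beta added, 45 min RT, CFP/YFP FRET ratio read.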
* = called active by the depositor; ? = inconclusive; · = no result given; & = joins results of further samples. A portion of the library (hit frequency here may not be typical).

SMILES	GLA inh pH 4.5	miR-21 FLuc	Rango release inh	Rango-impB inh
COCCNC(=O)C(c1cccs1)N(C(=O)Cn1nnc2ccccc21)c1cccc(C(C)=O)c1 (configuration not stated)	-4	-4%	2%	-0.8%
CCOc1ccc(C2=CSC3=NCCN23)cc1	·	-4%	15%	-1.8%
O=C(COC(=O)CCC(=O)c1cccs1)Nc1cccc(S(=O)(=O)N2CCOCC2)c1	8	0%	-6%	0.7%
CCOC(=O)C1=C(COC(=O)[C@H](C)NS(=O)(=O)c2ccc(NC(C)=O)cc2)NC(=O)NC1C (some centres not stated)	·	·	2%	-2.4%
NC(=O)Nc1ccc(C(=O)OCC(=O)Nc2cccc(S(=O)(=O)NC3=NCCCCC3)c2)cc1	6	1%	-5%	-0.2%
Cc1ccc(Cl)cc1N1CCN(C(=O)CN2C(=O)c3cccc4cccc2c34)CC1	0	-4%	-17%	?
COc1ccc(C(=O)NNS(=O)(=O)c2ccc(OC)cc2)cc1	·	-3%	-1%	0.1%
CC(C)(C)n1nnnc1C(c1cccs1)N(Cc1cccnc1)Cc1ccco1 (configuration not stated)	-1	9%	8%	2.0%
COc1cc(C(C)=O)ccc1OCC(=O)OCC(=O)c1cc(C)n(CC2CCCO2)c1C (configuration not stated)	·	·	8%	-3.0%
CCc1nc(SCC(=O)NCc2ccccc2)c2c(=O)n(C)c(=O)n(C)c2n1	-10	2%	0%	1.0%
Cc1cc(-c2ccc(C)c(S(=O)(=O)N3CCN(C(=O)c4ccco4)CC3)c2)on1	·	-10%	-8%	-0.9%
O=C1Nc2ccccc2N=C(c2ccccc2)C1Br (configuration not stated)	17	-15%	-14%	-3.6%
Cc1cc(N2CCN(S(=O)(=O)c3ccc(Cl)cc3)CC2)c2ccccc2n1	-2	26%	-5%	-2.5%
COc1ccc(-c2[nH]ncc2[C@@H]2C[C@H]3CN(Cc4ccccc4C)C(=O)[C@]34CCCN24)cc1	-10	11%	9%	1.2%
COc1ccc(-c2c3c(nc4sc(C(=O)Nc5ccccc5)c(N)c24)CCC3)cc1	·	·	?	?
CC(=O)c1cnc2scnn2c1=O	10	2%	-8%	-1.4%
S=C(Nc1ccc(Cl)c(Cl)c1)NC1CCN(Cc2ccccc2)CC1	-14	?	2%	-1.7%
O=C(C[n+]1ccccc1)N1CCCc2ccccc21	6	-1%	-2%	-1.0%
COc1cc(OC)cc(N(C(=O)c2ccco2)C(C(=O)NC2CCCC2)c2ccc(N(C)C)cc2)c1 (configuration not stated)	0	-11%	-5%	-2.7%
CC1(C)CC(CCNS(=O)(=O)c2ccccc2)(c2ccccc2)CCO1 (configuration not stated)	1	8%	-5%	-6.6%
CC(CNc1ccc(Cl)cc1)(CNc1ccc(Cl)cc1)[N+](=O)[O-]	·	·	25%	-0.1%
CCOc1ccc(S(=O)(=O)N2CCCC(C(=O)Nc3ccccc3)C2)cc1 (configuration not stated)	·	1%	-5%	3.7%
Cc1ccc(S(=O)(=O)N(CC(=O)NCC2CCCO2)Cc2ccc(F)cc2)cc1 (configuration not stated)	·	2%	5%	-4.5%
C=C1C(=O)O[C@@H]2[C@H]1[C@@H](OC(=O)/C(C)=C/C)C/C(C)=C\C(=O)/C=C(\C)[C@@H]2O	1	?	1%	-0.4%
CCOC(=O)c1csc(-n2nc(C)cc2C(F)(F)F)n1	12	-5%	24%	0.5%
CC(C)NC(=O)c1cnc(N2CCN(c3ccccn3)CC2)c2ccccc12	3	16%	-12%	1.0%
Cc1ccc(CCN2CC(C(=O)NCCN(C)C)CC2=O)cc1 (configuration not stated)	·	1%	0%	3.7%
O=C(NC1CCCCCC1)C1CCC(=O)N(Cc2ccccc2F)C1 (configuration not stated)	·	-8%	3%	3.5%
O=C(CCl)N1CCN(S(=O)(=O)c2ccc3c(c2)OCCCO3)CC1	·	·	-12%	3.1%
COC(=O)c1ccsc1NC(=O)C1=COCCO1	11	-13%	-2%	-0.2%

Part of the list above, showing only GLA inh pH 4.5, miR-21 FLuc and Rango-impB inh.
Molecule,GLA inh pH 4.5,miR-21 FLuc,Rango-impB inh
O=C(C[n+]1ccccc1)N1CCCc2ccccc21,6,-1%,-1.0%
O=C(CCl)N1CCN(S(=O)(=O)c2ccc3c(c2)OCCCO3)CC1,·,·,3.1%
CC(C)NC(=O)c1cnc(N2CCN(c3ccccn3)CC2)c2ccccc12,3,16%,1.0%
COC(=O)c1ccsc1NC(=O)C1=COCCO1,11,-13%,-0.2%

Continuation.
SMILES	GLA inh pH 4.5	miR-21 FLuc	Rango release inh	Rango-impB inh
CCC(=O)N1CCc2cc(S(=O)(=O)N3CCN(c4cc(Cl)ccc4C)CC3)ccc21	·	3%	8%	0.9%
COC(=O)[C@H](Cc1ccccc1)NC(=O)Nc1ccc(S(N)(=O)=O)cc1	5	-6%	-14%	-4.6%
CCSC(=O)N(CC)CC(=O)Nc1c(CC)cccc1CC	2	0%	2%	-2.7%
CCN(C(=O)COc1ccc(C(C)=O)cc1)c1cccc2ccccc12	·	·	0%	0.0%
CCCCOc1ccc(-c2nc(SCC(N)=O)n[nH]2)cc1	6	-34%	-9%	-2.4%
O=C(NCCOc1ccccc1)c1cccc2c1C(=O)c1ccc(Cl)cc1S2(=O)=O	·	·	-3%	-0.6%
COc1cccc(C(=O)OCC(=O)N2CCc3ccccc32)c1OC	·	·	1%	-2.5%
CN(CC(=O)Nc1ccc(F)c(F)c1F)C(=O)c1ccc2c(c1)NC(=O)CS2	·	·	-10%	-0.7%
CC(=O)Nc1ccc(S(=O)(=O)NC2(C(F)(F)F)N=C(c3ccccc3)NC2=O)cc1 (configuration not stated)	4	-2%	2%	0.4%
Cc1nn(-c2ccccc2)c(Cl)c1/C=N/NC(=O)c1ccc(CNc2ccccc2)o1	-7	-34%	-8%	11%
Cc1ccc(/C=C/C(=O)N2CCN(S(=O)(=O)c3cccs3)CC2)o1	-26	7%	-12%	1.5%
Cc1[nH]c2ccccc2c1/C=N/NC(=S)NCc1ccccc1	-12	-9%	-10%	0.3%
Cc1nnc(SCC(=O)Nc2ccccc2N2CCOCC2)s1	2	0%	17%	-1.7%
Cc1nc2ccc(NC(=O)C3=NN(C)C(=O)CC3)cc2s1	·	·	3%	0.9%
CCOC(=O)CNC(=O)c1ccc(OCC(F)(F)F)cc1	8	-47%	9%	?

Three structures already listed, ordered by molar mass, highest first:
SMILES	GLA inh pH 4.5	miR-21 FLuc	Rango release inh	Rango-impB inh
Cc1nn(-c2ccccc2)c(Cl)c1/C=N/NC(=O)c1ccc(CNc2ccccc2)o1	-7	-34%	-8%	11%
COC(=O)[C@H](Cc1ccccc1)NC(=O)Nc1ccc(S(N)(=O)=O)cc1	5	-6%	-14%	-4.6%
CCCCOc1ccc(-c2nc(SCC(N)=O)n[nH]2)cc1	6	-34%	-9%	-2.4%

More compounds follow.
SMILES	GLA inh pH 4.5	miR-21 FLuc	Rango release inh	Rango-impB inh
COc1ccc(C2CC(=O)Oc3c2c(=O)n(C)c2ccccc32)c(OC)c1OC (configuration not stated)	11	0%&2%	11%	3.5%
COc1ccc2[nH]c(=O)c(-c3nnn(-c4ccc(Cl)nc4)n3)cc2c1	·	·	?	?
COC(=O)[C@H](Cc1ccccc1)[C@@H](C)OS(N)(=O)=O	·	-2%	0%	-3.6%
COC(=O)c1ccc(CC(=O)c2ccc(O)cc2O)o1	-10	13%	-16%	?
CCC(C(=O)O/N=C(\N)c1ccc(C)cc1)c1ccccc1 (configuration not stated)	7	-7%	-9%	-0.7%
CCOc1ccc(OCC)c(NC(=O)CN2CCN(c3cccc(C)c3)C(C)C2)c1 (configuration not stated)	1	-2%	?	6.7%
CC(=O)OC(COc1ccccc1)Cn1cnc2cc(C)c(C)cc21 (configuration not stated)	4	0%&6%	-7%	-4.4%
CC(=O)Nc1ccc(C(=O)COC(=O)CCS(=O)(=O)c2ccccc2)cc1	·	·	?	-2.4%
CC1CC(C)(C)OC(C[N+]2(C)CCCCC2)O1 (configuration not stated)	15	0%	-7%	?
CCc1c(C)nc2c(-c3ccccc3)c(C)nn2c1Nc1ccc(NC(C)=O)cc1	-5	2%	-11%	-1.5%
COc1ccc(C(=O)OC(C)C(=O)NC2CCCC2)cc1S(=O)(=O)N1CCOCC1 (configuration not stated)	·	·	0%	0.2%
O=C(CN1C(=O)NC(c2ccccc2)(c2ccccc2)C1=O)N1CCN(c2ccccc2F)CC1	·	·	-12%	1.9%
CSc1nsc2nc(=O)c(/C=C3\C(C)=Nc4ccc(C)cc43)c(N)n12	-17	11%	?	?
O=C1C2C3C=CC(C3)C2C(=O)N1c1ccc2ccccc2n1 (configuration not stated)	5	-7%	10%	-0.8%
COc1ccc(C2=NS(=O)(=O)N(C)C(C(=O)NCc3cccs3)=C2)cc1OC	·	2%	6%	?
CCC(=O)N(Cc1cc2ccccc2[nH]c1=O)C(C)C	-6	-14%	17%	1.2%
COc1ccc(NC(=S)/N=C(\N)Nc2nc(C)c3ccc(C)cc3n2)cc1	-10	24%	-8%	-3.2%
COc1ccccc1NC(NC(=O)c1ccccn1)C(Cl)(Cl)Cl (configuration not stated)	0	-1%	-1%	-0.4%
Cc1ccc(C)c(NC(=O)COC(=O)c2cc3ccccc3oc2=O)c1	·	·	-10%	-3.9%
COc1ccccc1CNC(=O)CCNC(=O)C1CCN(S(=O)(=O)c2ccccc2)CC1	·	-1%	1%	5.1%
COC(=O)/C=C1\N/C(=N\c2nc(C)cc(C)n2)N(c2ccc(C)cc2)C1=O	-10	-16%	6%	?
CC1(C)Cc2[nH]c3ccccc3c2C(C)(C)N1	·	0%	4%	-0.8%
CCN(CC)c1ccc(C(=O)OCC(=O)NCC2CCCO2)cc1 (configuration not stated)	-18	-9%	-5%	2.7%
CCCc1nnc(NC(=O)CCCC(=O)O)s1	-6	-5%	-10%	1.5%
O=C(O)C(O)Cc1c[nH]c2ccccc12 (configuration not stated)	7	2%	3%	0.0%
COc1ccc(-c2cc(=O)oc3cc(OC(C)C(=O)O)ccc23)cc1 (configuration not stated)	3	-4%	10%	-4.3%
O=C(c1ccco1)N1CCN(c2cc(C(F)(F)F)nc3ncnn23)CC1	5	-1%	2%	-5.8%
CCC(=O)C(C#N)(c1ccc(OC)c(OC)c1)C(C)C (configuration not stated)	·	·	-17%	-2.8%
Cc1ccc(N(CC(=O)NCc2ccco2)C(=O)CNS(=O)(=O)c2ccccc2)c(C)c1	·	-1%	1%	-0.4%
Cc1ccnc(SCCn2c(N3CCN(Cc4ccccc4)CC3)nc3c2c(=O)[nH]c(=O)n3C)n1	-7	-13%	1%	-1.8%
CCN(C(=O)CSc1nnc(-c2ccccc2Cl)n1N)c1c(N)n(Cc2ccccc2)c(=O)[nH]c1=O	·	·	-16%	1.2%
CCCc1nc2c(s1)CCc1onc(-c3cccc([N+](=O)[O-])c3)c1-2	·	·	-4%	1.7%
COc1cccc(SCc2noc(C(=O)NCC3CC3)c2C(=O)NCC2CC2)c1	·	·	-12%	-1.1%
CCOc1ccc(C(=O)NCc2ccco2)cc1Cl	·	-12%	-7%	-0.5%
CCN(c1ccccc1)S(=O)(=O)c1ccc(NC(=S)NC(=O)c2cccs2)cc1	-2	16%	-15%	3.3%
Cc1ccc(NC(=O)Nc2cccnc2)cc1Cl	·	-44%	14%	0.1%
COc1ccc(NC(=O)c2ccc(S(=O)(=O)C(F)F)cc2)c(OC)c1	14	-11%	14%	0.3%
c1cc(CNc2ccc3c(c2)OCCO3)ccn1	-4	-29%	1%	-1.0%
CC(=O)C(Cc1ccccc1)(Cc1ccccc1)C(C)=O	·	-7%	-2%	-6.3%
CN(C)/C=N/NC(=O)c1ccccc1Cl	-3	-3%	-9%	0.8%
C=CCNC(=O)c1cc(-c2ccccc2O)on1	4	-66%	-10%	1.2%
Cc1cccc(N(CC(N)=O)S(C)(=O)=O)c1C	3	-1%	13%	-0.2%
COCCCNC1CS(=O)(=O)CC1O (configuration not stated)	5	-2%	-12%	0.3%
Cc1ccc(OCC(=O)Nc2ccc(N3CCN(C(=O)c4ccco4)CC3)cc2)c(C)c1	·	24%	2%	?
Cc1ccc(C(=O)NCC(=O)OCC(=O)Nc2ccc(Cl)cn2)cc1	·	·	-2%	-0.1%
Cc1ccc(-c2c3c(=O)n(C)c(=O)n(C)c3cn2Cc2ccccn2)cc1	-10	-7%	-5%	1.5%
CCOc1nc(NCCc2ccc(OC)c(OC)c2)nc(N2CCN(c3ccc(OC)cc3)CC2)n1	4	-4%	6%	-2.5%
